LANA-nucl inh: inhibitors of KSHV LANA-nucleosome binding, primary screen, biochemical, fluorescence polarization, FITC-LANA1-23, chicken nucleosomes | z-score (no concentration beside the values) | hit rate 0.3% among 51,000 | AID 720717, 2013 | FITC-LANA1-23 / chicken nucleosome fluorescence polarization; hits give low values;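 active = both repeat wells score below -2 in polarization z-score versus plate sample wells, excluding overly bright wells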;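 also: 100 nL library stock added to about 30 µL; numbers are from one replicate; some results filed as inactive read as strong as hits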
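System – purified chicken nucleosomes with FITC-labelled LANA N-terminal peptide (1-23) · Amount – 240 nM purified chicken nucleosomes (480 nM peptide binding sites), final · Also added – 50 nM FITC-LANA1-23 probe · Medium – TEN-BT buffer, pH 7.5 · Incubation – compound with peptide–nucleosome mix 10–45 min at room temperature · Detection – fluorescence polarization, ex 480 nm, em 535 nm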
BasE inh: BasE siderophore enzyme inhibitors, primary screen, biochemical, Acinetobacter baumannii ATCC 17978, fluorescence polarization. inhibition, % (test concentration not listed). hit rate 0.1% among 84,000. purified BasE, fluorescence polarization binding displacement. AID 485350, 2010;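 active = both replicates above 25% with normal brightness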;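 also: 0% = negative plate control signal and 100% = positive plate control signal; stock transfer was 100 nL into about 30 µL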
* marks the source's active call; other numbers are inactive results; . = no result given; & = joins results of further samples. This is a subset; count on the stated rates, not on these rows.

SMILES	LANA-nucl inh	BasE inh
O=C(Oc1ccc(-c2nnco2)cc1)c1cc2c(s1)CCCC2	.	-3.1
Clc1ccc2oc(-c3ccccn3)nc2c1	.	-6.1
Cc1nc(-c2c(C(=O)NN)noc2C)cs1	.	0.5
CC1CCCN(S(=O)(=O)Cc2ccccc2)C1 (configuration not stated)	0.44	1.9
c1ccc(-c2noc(NCCN3CCCc4ccccc43)n2)cc1	0.62	2.6
CN(C)c1ccc(/C=C(/C#N)c2ccc(F)cc2)cc1	-0.6	-1.9
CCc1ccccc1N1C(=NC(=O)C(C)C)SC2CS(=O)(=O)CC21 (configuration not stated)	-1	1.9
COc1ccc(NC(=O)C2=CSCCO2)cc1OC	2.1	-3.1
O=S(=O)(Cn1nc(Br)nc1Br)c1ccc(Cl)cc1	0.63	.
O=P(O)(/C=C/c1ccccc1)/C=C/c1ccccc1	0.38	1.2
Cc1cc(C)cc(NC(=O)C(c2ccccc2)N2CCCC2)c1 (configuration not stated)	.	-2.4
CN(C)c1ccc(Cl)nn1	1	-3.0
O=C(NCc1ccc(Cl)cc1)C1=CN2CCS(=O)(=O)N=C2C=C1	.	4.1
O=C(Nc1ccccc1C(=O)Nc1ccccc1C(=O)O)c1ccccc1	.	1.1
CCN1C(=O)c2cccc3c(S(=O)(=O)NCc4ccco4)ccc1c23	-0.3	0.7
O=C(CN1C(=O)S/C(=C\c2ccc(O)cc2)C1=O)N1CCOCC1	.	2.1
Nc1nc(NC2CCCCNC2=O)n[nH]1 (configuration not stated)	.	-2.0
CCCCCc1nnc(N)s1	0.54	-1.1
OCc1nc2ccccc2n1CC(O)COc1ccccc1 (configuration not stated)	-0.94	0.1
O=C(O)CCc1n[nH]c(=O)[nH]c1=O	.	-1.4
CN(C)CCc1c[nH]c2ccc(Cn3cncn3)cc12	0.099&0.44	.
CSCc1nnc(NC(=O)c2ccc(S(=O)(=O)N(CC(C)C)CC(C)C)cc2)o1	-0.36	-0.9
COc1ccc(C)cc1S(=O)(=O)NC(C)C(=O)NCc1ccco1 (configuration not stated)	-0.59	0.5
COc1cc(C#N)ccc1OCC(=O)Nc1ccc(F)cc1	-0.66	-1.1
CNC(=O)c1ccccc1Sc1ccccc1C(=O)NC	.	-0.6
OC(CN1CCOCC1)(c1ccccc1)c1ccccc1	1.5	.
COC(=O)c1c(C)[nH]c(C(=O)C(C)N2CCN(c3ccc(O)cc3)CC2)c1C (configuration not stated)	.	-0.9
CN1CCC(c2ccc(Cl)s2)=N1	0.79	-2.0
CC(C)(C)c1ccc(C(=O)NC(=S)NCc2ccco2)cc1	-1.5	1.3
O=C(N/N=C/c1ccco1)C1CC1(c1ccccc1)c1ccccc1 (configuration not stated)	-0.19	2.8

Some of the entries above in another layout:
canonical_smiles | LANA-nucl inh | BasE inh
COc1ccc(C)cc1S(=O)(=O)NC(C)C(=O)NCc1ccco1 (configuration not stated) | -0.59 | 0.5
COc1cc(C#N)ccc1OCC(=O)Nc1ccc(F)cc1 | -0.66 | -1.1
CNC(=O)c1ccccc1Sc1ccccc1C(=O)NC | . | -0.6
OC(CN1CCOCC1)(c1ccccc1)c1ccccc1 | 1.5 | .

More entries follow:
SMILES	LANA-nucl inh	BasE inh
O=C(COc1ccc(-c2nnco2)cc1)N(c1ccccc1)C1CCCCC1	.	0.2
CN(C)/C=C/c1c(C#N)c(=O)ncn1Cc1ccccc1	-0.12	0.5
CCOC(=O)n1c(=O)oc2cc(Cl)ccc21	.	0.9
O=c1[nH]c(CSc2ccccc2)nc2ccccc12	-0.39	-0.1
Cc1cc(C)n2c(SCC(=O)Nc3ccccc3)nnc2n1	0.97	-0.5
CCNc1nc(NCC)nc(NNC(=S)Nc2ccc(C)cc2)n1	.	3.3
CCC(=O)Nc1ccc(Cl)c(C(F)(F)F)c1	0.2	-2.1
COc1ccc2c(c1)[nH]c1c(=O)n(CCCN3CCN(C4CCCCC4)CC3)cnc12	-0.048	-4.0
O=c1c2ccccc2nc2n1CCN2	-0.29	0.6
O=C1/C(=C/c2cccnc2)CCC/C1=C\c1cccnc1	0.17	0.9
O=C(Nc1ccccc1N1CCCCC1)c1ccco1	-0.35	.
COC(=O)C1=C(C)NC(=O)NC1c1ccccc1 (configuration not stated)	.	-0.4
CC(C)(C)c1ccc(C(=O)N2CCC(C(=O)O)CC2)cc1	0.82	-1.2
NC(=O)/C(=C\c1ccco1)NC(=O)c1ccc(Br)cc1	-0.17	-0.2
CCc1ccc(NC(=S)NCC(C)(C)N2CCOCC2)cc1	.	0.8
CN(CC(=O)NCc1ccccc1)S(=O)(=O)c1ccc(C(=O)N2CCOCC2)s1	0.75	0.1
CC(C)NS(=O)(=O)c1ccc(CN2C(=O)c3cccnc3C2=O)s1	1	-3.0
O=C(CSc1ccc(Cl)cc1)Nc1ccccc1	-0.56	1.7
C=CCN1C(=O)/C(=C/c2c(NCc3ccco3)nc3ccccn3c2=O)SC1=S	4.4	-2.2
COc1cc2nc(CN3CCC(C)CC3)[nH]c(=O)c2cc1OC	.	3.6

An excerpt from above in order of the LANA-nucl inh value, ascending:
Structure	LANA-nucl inh
NC(=O)/C(=C\c1ccco1)NC(=O)c1ccc(Br)cc1	-0.17
CC(C)(C)c1ccc(C(=O)N2CCC(C(=O)O)CC2)cc1	0.82
CC(C)NS(=O)(=O)c1ccc(CN2C(=O)c3cccnc3C2=O)s1	1

Additional records follow.
SMILES	LANA-nucl inh	BasE inh
CN(C)C(C(=O)NC1CCCC1)c1ccc(Cl)cc1 (configuration not stated)	0.4	2.0
Cc1cccc(N2Cc3cccc(C(=O)O)c3C2=O)c1	0.27	-1.6
NC(=O)c1ccc(N(S(=O)(=O)C(F)(F)F)S(=O)(=O)C(F)(F)F)cc1	.	0.3
Cc1cc(=O)[nH]c(SCC(=O)NC(C)C2CC3CCC2C3)c1C#N (configuration not stated)	.	-0.8
Cc1cc(C)c2c(n1)sc1c(N3CCN(C)CC3)ncnc12	1	.
CCOc1ccccc1OC(C)C(=O)NC(C)(C#N)C(C)C (configuration not stated)	.	0.8
COc1cccc(CN(C)CN2C(=O)NC3(CC(C)(C)NC(C)(C)C3)C2=O)c1OC	.	0.8
CC(C(=O)Nc1cccc(F)c1)C1Sc2ccccc2NC1=O (configuration not stated)	-0.87	2.6
CC1=C(c2ccccc2)S(=O)(=O)NC1=NCc1ccccc1	0.39	0.6
CO/N=C(/C(=O)NC1C(=O)N2C(C(=O)O)=C(COC(N)=O)CSC12)c1ccco1 (configuration not stated)	-0.08&0.68	1.1
CC(Sc1nnc(N)s1)C(=O)Nc1cccc2ccccc12 (configuration not stated)	2.2	-3.4
O=C(CC1C(=O)N(c2ccccc2)C(=S)N1CCc1ccc(F)cc1)Nc1ccc(F)cc1 (configuration not stated)	.	3.5
CCCCN1CC(O)=C(c2nc(-c3ccc(Cl)cc3)cs2)C1=N	.	3.8
CSCc1c(C(=O)NCc2ccc3c(c2)OCO3)oc2ccccc12	.	1.0
Cc1ccc(CCNS(=O)(=O)c2cc3c(cc2Cl)NC(=O)CO3)cc1	-0.62	-1.4
CCOC(=O)CCN1C(=O)c2ccccc2C1=O	.	-3.1
COc1ccc(CC(=O)c2cc(OC)c(OC)cc2CC(=O)O)cc1OC	-0.75	1.0
COc1cc(C(=O)/C=C/Nc2ccccc2C(N)=O)cc(OC)c1OC	.	0.9
COC(=O)c1csc(S(=O)(=O)N=S(C)(=O)c2ccccc2)c1OC (configuration not stated)	-1.2	1.0
O=C(c1ccc(F)cc1)c1cccnc1	1.2	3.6
COc1ccc2c(Sc3ccccc3)c(C(=O)NCCN3CCN(C)CC3)[nH]c2c1	-0.55	-39
CCc1ccc(N=Nc2sc3nc4c(c(=O)n(C)c(=O)n4C)n3c2O)cc1	.	0.7
CC(Sc1nc(N)cc(N)n1)C(=O)c1ccc(Br)cc1 (configuration not stated)	.	-1.4
Cc1c(C#N)c2nc3ccccc3n2c(=O)/c1=C\Nc1cccc(NC(=O)c2ccccc2)c1	.	-1.0
Cc1n[nH]c(C)c1NC(=O)c1cc2ccccc2oc1=O	-0.33	-1.0
O=C(CCC(=O)c1cccs1)NC1=NCCS1	.	2.4
COc1ccc(OCC(=O)N2N=C(c3ccc(Cl)cc3)CC2c2ccco2)cc1 (configuration not stated)	.	-0.1
C=CCc1cc(OC)ccc1OCCCSc1ncccn1	-0.79	0.8
COC(=O)c1ccc(CSc2nnc(SCC(=O)Nc3ccc4c(c3)OC3(CCCCC3)O4)s2)o1	.	-1.0
Cc1ccc(S(=O)(=O)NC(=O)c2cc(/C=N/NCCC#N)n(C)c2)cc1	.	-1.4

Among those listed so far, ten contain an aryl thioether with sulfur outside any ring.
SMILES	LANA-nucl inh	BasE inh
CNC(=O)c1ccccc1Sc1ccccc1C(=O)NC	.	-0.6
O=c1[nH]c(CSc2ccccc2)nc2ccccc12	-0.39	-0.1
Cc1cc(C)n2c(SCC(=O)Nc3ccccc3)nnc2n1	0.97	-0.5
O=C(CSc1ccc(Cl)cc1)Nc1ccccc1	-0.56	1.7
Cc1cc(=O)[nH]c(SCC(=O)NC(C)C2CC3CCC2C3)c1C#N (configuration not stated)	.	-0.8
CC(Sc1nnc(N)s1)C(=O)Nc1cccc2ccccc12 (configuration not stated)	2.2	-3.4
COc1ccc2c(Sc3ccccc3)c(C(=O)NCCN3CCN(C)CC3)[nH]c2c1	-0.55	-39
CC(Sc1nc(N)cc(N)n1)C(=O)c1ccc(Br)cc1 (configuration not stated)	.	-1.4
C=CCc1cc(OC)ccc1OCCCSc1ncccn1	-0.79	0.8
COC(=O)c1ccc(CSc2nnc(SCC(=O)Nc3ccc4c(c3)OC3(CCCCC3)O4)s2)o1	.	-1.0

Further records follow:
SMILES	LANA-nucl inh	BasE inh
CCCNC(=O)c1cccc(NC(=O)N2CCSc3ncccc32)c1	.	0.2
CN1/C(=C\C=C2\C(=O)Oc3ccccc3C2=O)C(C)(C)c2ccccc21	.	7.1
O=C(Nc1ccc2oc(-c3ccccc3)nc2c1)c1ccc(Br)cc1	0.18	0.0
COc1cc2c(C)nc3onc(-c4ccccc4)c3c2cc1OC	-0.37	-1.7
NC(=O)C1CCCNC1 (configuration not stated)	.	2.8
NC(=O)CSc1nc2sc3c(c2c(=O)n1C1CCCC1)CCCC3	.	2.9
COc1ccc(Cl)cc1NC(=O)CN(C)C(=O)c1cccnc1SCc1c(C)noc1C	.	-0.7
COC(=O)C1=C(C)NC(C)=C(C(=O)OC)C1c1ccccc1OCc1c(C)no[n+]1[O-]	.	1.1
Cc1ccc(S(=O)(=O)n2nc(C)cc2C)cc1	.	-3.0
CCn1c(=O)/c(=C\c2ccc(Cl)cc2)s/c1=C(/C#N)C(N)=O	.	2.0
C/C(=N/OC(=O)CSc1nc(-c2ccco2)cc(C(F)(F)F)n1)c1ccccc1	-0.18	-0.3
Cc1cc(C)c2cc(C3C(C#N)=C(N)OC4=C3C(=O)CC(C)(C)C4)c(=O)[nH]c2c1 (configuration not stated)	1.9	-50
O=C1CSC2(CCCC2)N1	1.4	-1.0
NS(=O)(=O)c1cccc(-n2cnnn2)c1	.	1.9
O=C(CN1CCCCC1)Nc1ccccc1C(=O)NC1CC1	.	-0.6
Cc1ccn2c(=O)c(-c3ccccc3)c(O)nc2c1	0.084	1.9
Cc1cc(C)c2c(n1)SCC(=O)N2CC(=O)NC1CCN(Cc2ccccc2)CC1	-0.11	1.1
Cn1/c(=N\NC(=O)C23CC4CC(CC(C4)C2)C3)sc2ccccc21	-0.47	1.0
S=C(Nc1ccc2nsnc2c1)N1CCCC1	.	-0.8
CCCNC(=O)CN1CCN(c2nc(C)nc3scc(-c4cccs4)c23)CC1	.	-3.0
O=C(c1cnn(-c2ccccc2)n1)N(CC1CCCO1)C1CCS(=O)(=O)C1 (configuration not stated)	.	4.1
O=C(CSc1nnc(-c2ccco2)o1)NC(=O)C1COc2ccccc2O1 (configuration not stated)	.	1.9
COc1ccc(/C=N/NC(=O)c2ccncc2)cc1CN1CCN(c2ccc(F)cc2)CC1	-1	-0.8
CC(C)(O/N=C(/C(=O)N[C@@H]1C(=O)N2C(C(=O)[O-])=C(C[n+]3ccccc3)CS[C@H]12)c1csc(N)n1)C(=O)O	-0.36	0.9
CCC(=O)NC(Nc1cccnc1Cl)(C(F)(F)F)C(F)(F)F	.	-0.1
O=S(=O)(c1ccccc1)c1ccc(C(F)(F)F)cn1	.	1.4
O=C(Nc1ccccc1O)c1cccc(S(=O)(=O)N2CCCC2)c1	0.66	-1.6
CC(C)(C)NC(=O)CSc1nc(O)cc(=O)[nH]1	0.8	1.8
Cc1csc(C2C(=O)NC(S)=C(C#N)C23CCCCC3)n1 (configuration not stated)	.	-1.4
COc1cccc(OCCSc2nc3ccccc3c(=O)[nH]2)c1	-1.2	2.2
CC(C)CNC(=O)c1cc(CC(C)C)on1	0.02	0.5
CC(=O)N1c2ccc(S(=O)(=O)N3CCC(C(=O)N4CCn5c4nc4ccccc45)CC3)cc2CC1C (configuration not stated)	-0.76	-5.4
Cc1cc(OCC(=O)N(C)c2ccccc2)cc(C)c1Cl	0.02	1.9
CCCn1ncc(OC)c(Cl)c1=O	0.79	2.4
Cc1cc(NC(=O)c2ccc3c(c2)S(=O)(=O)c2ccccc2C3=O)n(-c2ccccn2)n1	.	1.1
Cc1cccc(C)c1NCc1nnc(SCC#N)n1-c1ccccc1	-1.6	-1.8
COc1ccc(NC(=O)C(Cc2c[nH]c3ccccc23)NC(C)=O)cc1OC (configuration not stated)	1.7	-4.7
Cc1noc(N)c1C(=O)OCc1c(F)cccc1Cl	.	-1.3
O=C(O)CC(c1ccco1)N1Cc2ccccc2C1=O (configuration not stated)	0.34	.
COc1ccc(-c2cc(=O)c3cc(OC(=O)Cc4ccccc4)ccc3o2)cc1	.	0.0
CC1=CC(=C2C(=O)c3ccccc3C2=O)C=C(C)N1CC(C)C	-1.2	5.2
